BJeLR viability – compounds reducing viability of BJeLR cells | BJeLR fibroblasts viability, CellTiterGlo ATP luminescence, 48 h; HRASV12, hTERT and SV40 LT/ST transformed | viability loss activity score, % (no concentration beside the values) | hit rate 0.64% among 30,000 | AID 2275; in the data active means viability loss activity score above about 50%; about a fifth of its hits are not listed in these tables;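 further: higher score means fewer live cells and less ATP luminescence; stock transfer was 50 or 100 nL into about 30 µL; 0% = vehicle wells and 100% = a reference killing control; one replicate is shown; the record names a cut of 85%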
A1 inhib – blocks A1 activity. MEF A1-2A-BIM cells, caspase-Glo luminescence, 3 h; percent of clofoctol signal, DMSO as zero. caspase activation, % (no concentration beside the values). hit rate 0.51% among 21,000. AID 2241;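 active means most replicate scores above 10, or exactly half above 10 with mean activity above 10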;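 further: effector caspase 3 and 7 activity cleaving a DEVD luciferin substrate; 50 nL library stock added to about 30 µL; numbers are from one replicate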
Active calls of the source: *; · = no result given. Not all compounds are listed; the hit share may differ from the screen's.

nr | SMILES | BJeLR viability | A1 inhib
1 | CC1=C(C(N)=O)C(c2cccs2)NC(=S)N1 (centres undefined) | -7.2 | 0.5
2 | COc1ccc(NC(=O)N(C)C[C@@H]2Oc3ccc(NS(=O)(=O)c4ccc(F)cc4)cc3C(=O)N([C@H](C)CO)C[C@@H]2C)cc1 | -0.7 | -0.2
3 | CCOC(=O)c1cnc2c(ccc3ccccc32)c1NCCOC(=O)c1cccnc1 | -0.5 | -0.6
4 | C[C@H](CO)N1C[C@H](C)[C@@H](CN(C)S(=O)(=O)c2ccc(Cl)cc2)Oc2ccc(N(C)C)cc2C1=O | 0.5 | 0.2
5 | N#C/C(=N\O)C(=O)c1ccco1 | -1.8 | -0.6
6 | C[C@@H]1CN([C@H](C)CO)C(=O)c2cccc(N(C)C)c2O[C@H]1CN(C)Cc1ccc(Oc2ccccc2)cc1 | 2.0 | ·
7 | O=C(Cc1ccccc1)c1ccccc1C(=O)NCc1ccc(F)cc1 | 5.0 | 0.7
8 | Cc1ccc(S(=O)(=O)N(C)C[C@@H]2Oc3ccc(NC(=O)CCN4CCOCC4)cc3C(=O)N([C@@H](C)CO)C[C@H]2C)cc1 | 0.5 | 0.5
9 | O=C(O)c1ccc(CNCc2cccc(Oc3ccccc3)c2)cc1 | -3.3 | -0.2
10 | Cc1sc(NC(=O)Cn2nc(C(F)(F)F)cc2C)c(C(N)=O)c1C | -2.1 | -0.4
11 | Cc1c(C(=O)CC#N)sc2ccc(Cl)cc12 | -1.5 | -0.6
12 | C[C@H]1CN([C@@H](C)CO)C(=O)c2cc(NC(=O)Cn3cnnn3)ccc2O[C@@H]1CN(C)S(=O)(=O)c1ccc(Cl)cc1 | 0.1 | -0.2
13 | CCCc1cc(=O)[nH]c(/N=C(\N)Nc2cccc(C)c2)n1 | -8.3 | -0.2
14 | CC(C)OC(=O)c1cc2cc(Br)ccc2oc1=O | 1.7 | ·
15 | C[C@@H]1CN([C@H](C)CO)C(=O)c2cccc(NC(=O)Nc3cccc4ccccc34)c2O[C@@H]1CN(C)C(=O)Nc1cccc2ccccc12 | 3.0 | ·
16 | Cc1cc(C)nc(N/C(=N\S(=O)(=O)Cc2ccccc2)Nc2ccccc2Br)n1 | -2.1 | ·
17 | CCN[C@H]1CN(CCCOC)S(=O)(=O)c2sc(S(N)(=O)=O)cc21 | -1.9 | 0.6
18 | CC1(C)CC(=O)C=C(OC(=O)c2ccc(C(C)(C)C)cc2)C1 | 1.6 | 0.1
19 | CCOC(=O)c1nn(-c2ccccc2)c(C#N)c1NC(=O)c1nn(CC)cc1Br | -0.6 | -0.7
20 | CCCc1nc2c(o1)N(C(=O)OCC)C(N)=C(C#N)C21CCNCC1 | -0.7 | -0.2
21 | COc1ccc(CCNC(=O)C(C(C)C)N2C(=O)c3ccccc3C2=O)cc1 (centres undefined) | 0.9 | ·
22 | COc1ccc(NC(=O)N(C)C[C@@H]2Oc3ccc(NC(=O)Nc4ccc(C(F)(F)F)cc4)cc3C(=O)N([C@H](C)CO)C[C@@H]2C)cc1 | -2.3 | -0.5
23 | CCOc1ccc(-n2cc(-c3ccccc3)c3c(SCC)ncnc32)cc1 | -6.5 | ·
24 | N#C/C(=C\N1CCC(n2cccc2)CC1)S(=O)(=O)c1ccccn1 | -0.5 | 1.1
25 | COC(=O)c1ccc2c(c1)N(C)S(=O)(=O)/C(=C\Nc1ccc(Cl)cc1)C2=O | -3.7 | -0.5
26 | C[C@@H]1CN([C@H](C)CO)C(=O)c2cc(NS(=O)(=O)c3ccc(Cl)cc3)ccc2O[C@H]1CN(C)S(=O)(=O)c1ccc(F)cc1 | 0.0 | -0.5
27 | CCC(C)C1=NN(C(=O)c2ccccc2)C(O)(C(=O)OC)C1 (centres undefined) | 0.7 | -0.8
28 | Cc1ccc(S(=O)(=O)N(C)C[C@H]2Oc3c(NC(=O)NC4CCCCC4)cccc3C(=O)N([C@H](C)CO)C[C@@H]2C)cc1 | -2.0 | ·
29 | COc1ccc(Cn2nnc3c(=O)[nH]c(C4CCCN(S(=O)(=O)c5ccccc5)C4)nc32)cc1 (centres undefined) | -9.5 | 0.6
30 | C=C(C(=O)O)C1C(OC(=O)/C(=C/CO)CO)CC(C)(O)C2CC(OC(C)=O)C(C)=CC12 (centres undefined) | -0.2 | 0.6
31 | C[C@@H]1CN([C@@H](C)CO)C(=O)c2cc(NC(=O)CCCCCC(=O)Nc3ccccc3N)ccc2O[C@H]1CN(C)Cc1ccccc1 | 0.1 | ·
32 | Cc1noc(C)c1NC(=O)Nc1cccc2c1O[C@H](CN(C)Cc1ccncc1)[C@H](C)CN([C@H](C)CO)C2=O | 4.1 | ·
33 | COc1ccc(CNC(C)=O)cc1 | -1.3 | 0.8
34 | C[C@@H]1CN([C@@H](C)CO)C(=O)c2cc(NC(=O)C3CCCCC3)ccc2O[C@@H]1CN(C)S(C)(=O)=O | 0.3 | 1.0
35 | C[C@H](CO)N1C[C@H](C)[C@H](CN(C)S(=O)(=O)c2cn(C)cn2)Oc2c(NC(=O)Nc3ccc4c(c3)OCO4)cccc2C1=O | 3.1 | ·
36 | CC(C)[C@@H]1CC[C@@]2(C)[C@H](O)CC[C@@](C)(O)[C@@H]2[C@@H]1OC(=O)/C=C/c1ccccc1 | -9.3 | -0.2
37 | CCN1C(=O)C(C(O)c2cc(OC)ccc2OC)SC1=Nc1ccc(C(=O)OC)cc1 (centres undefined) | 0.2 | ·
38 | Nc1ccc(S(=O)(=O)NC2CCCCC2)cc1 | 6.1 | 1.7
39 | CC(C)NC(=O)N(C)C[C@H]1Oc2ccc(NS(=O)(=O)c3ccccc3)cc2C(=O)N([C@@H](C)CO)C[C@H]1C | 1.2 | -0.2
40 | CC1=C(C(=O)Nc2cccc(Cl)c2C)C(c2ccc(F)cc2)NC(=S)N1 (centres undefined) | -2.5 | 1.0
41 | C[C@H](CO)N1C[C@H](C)[C@@H](CN(C)S(=O)(=O)c2ccc(Cl)cc2)Oc2c(NC(=O)Nc3cccc4ccccc34)cccc2C1=O | 2.1 | ·
42 | CN(C)CCN(Cc1ccccc1)c1ccccn1 | 2.0 | 0.1
43 | C[C@@H]1CN([C@H](C)CO)C(=O)c2cc(N(C)C)ccc2O[C@@H]1CN(C)Cc1ccc(C(F)(F)F)cc1 | 1.6 | 0.3
44 | COc1cc(OC)cc(C2C(C#N)=C(N)OC(N)=C2C#N)c1 | 1.9 | -0.8
45 | C[C@@H]1CN([C@H](C)CO)C(=O)c2cccc(NC(=O)c3nc4ccccc4s3)c2O[C@H]1CN(C)C(=O)NC1CCCCC1 | -2.9 | ·
46 | Cc1ccc(Nc2ncc(C(=O)NCCC3=CCCCC3)c3ccccc23)cc1Cl | -3.5 | ·
47 | C[C@@H]1CN([C@H](C)CO)C(=O)c2cc(NC(=O)CCN3CCOCC3)ccc2O[C@@H]1CN(C)CC1CC1 | 2.3 | -0.5
48 | C[C@H]1CN([C@@H](C)CO)C(=O)c2cccc(NC(=O)Nc3cccc4ccccc34)c2O[C@@H]1CN(C)C(=O)Nc1ccc(C(F)(F)F)cc1 | 10.0 | ·
49 | COCCN1C(=O)c2oc3ccccc3c(=O)c2C1c1ccc(OC)c(OC)c1 (centres undefined) | 2.0 | ·
50 | CC/C=C\C/C=C\C/C=C\C/C=C\C/C=C\CCCC(=O)O | -1.7 | 0.8

Two consecutive compounds from above, for reference:
nr | SMILES | BJeLR viability | A1 inhib
26 | C[C@@H]1CN([C@H](C)CO)C(=O)c2cc(NS(=O)(=O)c3ccc(Cl)cc3)ccc2O[C@H]1CN(C)S(=O)(=O)c1ccc(F)cc1 | 0.0 | -0.5
27 | CCC(C)C1=NN(C(=O)c2ccccc2)C(O)(C(=O)OC)C1 (centres undefined) | 0.7 | -0.8

More results:
nr | SMILES | BJeLR viability | A1 inhib
51 | CN1C(=O)CSc2ccc(NC(=O)N3CCN(c4ccccc4)CC3)cc21 | 7.8 | 1.0
52 | Cc1cccc2nc(-c3cccc(NC(=O)C(C)C)c3)cn12 | -0.4 | ·
53 | C[C@H]1CN([C@@H](C)CO)C(=O)c2cc(NC(=O)Nc3ccc(F)cc3)ccc2O[C@H]1CN(C)S(=O)(=O)c1ccc(F)cc1 | -1.4 | -0.3
54 | COc1ccc(NC(=O)N(C)C[C@H]2Oc3c(NS(=O)(=O)c4ccc(F)cc4)cccc3C(=O)N([C@H](C)CO)C[C@H]2C)cc1 | 2.0 | ·
55 | Cc1ccn2c(NC(=O)C3CCCCC3)c(-c3ccc(F)cc3)nc2c1 | -0.6 | ·
56 | C[C@H]1CN([C@@H](C)CO)C(=O)c2cc(N(C)C)ccc2O[C@@H]1CN(C)Cc1ccc(Oc2ccccc2)cc1 | -1.3 | -0.2
57 | Cc1onc(-c2ccccc2)c1-c1nc(CSc2nc3ccccc3[nH]2)no1 | -7.3 | 0.5
58 | Cc1ccccc1Cn1cc(SCC(=O)N2CCCc3ccccc32)c2ccccc21 | 0.7 | 0.5
59 | CCc1ccc(O)c(C2(O)C(=O)c3ccccc3C2=O)c1 | 7.0 | ·
60 | C[C@@H]1CN([C@H](C)CO)C(=O)c2cccc(NC(=O)c3ccncc3)c2O[C@@H]1CN(C)Cc1ccc(C(=O)O)cc1 | 5.0 | ·
61 | CNC[C@H]1Oc2c(NC(=O)C3CCCCC3)cccc2C(=O)N([C@@H](C)CO)C[C@H]1C | 7.1 | ·
62 | CC(C)NC(=O)N(C)C[C@H]1Oc2ccc(NS(=O)(=O)c3ccc(Cl)cc3)cc2C(=O)N([C@H](C)CO)C[C@H]1C | -1.1 | -0.2
63 | C[C@H](CO)N1C[C@H](C)[C@@H](CN(C)Cc2ccc(Oc3ccccc3)cc2)Oc2ccc(NS(=O)(=O)c3cccs3)cc2C1=O | 5.6 | 0.0
64 | COC(=O)COc1ccc2c(=O)c(-c3ccc(Cl)cc3)coc2c1 | 0.1 | -0.3
65 | C[C@@H]1CN([C@@H](C)CO)C(=O)c2cc(NC(=O)CCN3CCOCC3)ccc2O[C@@H]1CN(C)Cc1ccc2c(c1)OCO2 | -2.9 | -0.4
66 | CC1(C)O[C@@H]2CC3C4C[C@H](F)C5=CC(=O)C=CC5(C)C4C(O)CC3(C)[C@]2(C(=O)CO)O1 (some centres undefined) | -8.8 | 0.4
67 | COC(=O)C1=C[C@@H](O)[C@@H](O)[C@H](O[C@@H]2O[C@H](CO)[C@@H](O)[C@H](O)[C@H]2OC(=O)/C=C/c2ccccc2)C1 | -5.8 | -0.1
68 | O=c1oc2cc(OCc3ccc(Cl)cc3)ccc2c2c1CCC2 | -3.6 | -3.0
69 | CC(C)Cc1ccc(-c2cc(=O)[nH][nH]2)cc1 | -6.4 | -0.4
70 | Cc1oc(-c2ccccc2Cl)nc1CSCC(=O)O | 7.6 | 0.0
71 | C=C(C)C1CCC2(C)OC(=O)N(Cc3ccccc3)C12C (centres undefined) | -0.7 | 0.2
72 | C=CCn1c(CNc2ccc(C)cc2)nnc1SCC(=O)c1ccccc1 | -1.2 | ·
73 | O=C(Oc1ccc(S(=O)(=O)c2ccc(OC(=O)c3cccs3)cc2)cc1)c1cccs1 | 0.2 | 0.8
74 | C[C@H]1CN([C@@H](C)CO)C(=O)c2cccc(NS(=O)(=O)c3cn(C)cn3)c2O[C@@H]1CN(C)C | -5.4 | ·
75 | C[C@H](CO)N1C[C@H](C)[C@@H](CN(C)Cc2ccc(Cl)c(Cl)c2)Oc2c(NC(=O)Nc3ccc(F)cc3)cccc2C1=O | 2.1 | ·
76 | CC1(C)CC(=O)c2c(nn(-c3ccccc3)c2N)C1 | -10.5 | 0.8
77 | CC1(C)CC(=O)C(C(NC(=O)c2ccccc2)(C(F)(F)F)C(F)(F)F)C(=O)C1 | -1.7 | ·
78 | O=C(COC(=O)c1cc2ccccc2oc1=O)c1ccccc1 | 2.7 | -0.2
79 | COc1ccc(CN(C)C[C@@H]2Oc3c(NC(=O)c4cc(C)nn4C)cccc3C(=O)N([C@H](C)CO)C[C@H]2C)cc1 | 2.2 | ·
80 | Cc1noc(C)c1NC(=O)Nc1ccc2c(c1)C(=O)N([C@@H](C)CO)C[C@H](C)[C@@H](CN(C)Cc1ccc(C(=O)O)cc1)O2 | 7.0 | 0.5
81 | CCOC(=O)C1=C(C)Nc2nc3ccccc3n2C1c1ccccc1 (centres undefined) | 1.3 | ·
82 | CN(C(=O)c1ccc2c(Cl)c3c(nc2c1)CCCC3)C1CCCCC1 | -3.9 | ·
83 | CSc1sc(C#N)c2c1C(=O)CC(c1ccccc1)C2 (centres undefined) | 0.2 | 0.6
84 | COc1ccc(/C=C2\C(=O)N(c3ccc(Cl)cc3)C(c3ccc(F)cc3)S2(=O)=O)c(OC)c1 (centres undefined) | 3.4 | -0.6
85 | CC1(C)CC(NC(=O)N2c3ccccc3CCc3ccccc32)CC(C)(C)N1 | 1.3 | 0.0
86 | CC(Cc1c[nH]c2ccccc12)NC(N)=O (centres undefined) | -1.9 | 1.0
87 | Cc1c(CO)[nH]c2ccc(Cl)cc12 | -6.9 | ·
88 | Cc1csc(NC(=O)CSc2nc(C34CC5CC(CC(C5)C3)C4)ccc2C#N)n1 | -1.0 | -1.1
89 | Cc1nn(-c2ccccc2)nc1-c1nnc(-c2ccc(Cl)c(Cl)c2)o1 | 1.4 | 0.6
90 | O=C(Nc1cccc(F)c1)c1cc(S(=O)(=O)N2CCCCC2)ccc1F | 9.3 | -1.1
91 | CC(C)(C)NS(=O)(=O)c1cccc2nsnc12 | 1.0 | ·
92 | C[C@@H]1CN([C@H](C)CO)C(=O)c2cccc(NS(=O)(=O)c3ccc(Cl)cc3)c2O[C@@H]1CN(C)CC1CC1 | -6.9 | ·

In another format: 3 of the compounds above
81) CCOC(=O)C1=C(C)Nc2nc3ccccc3n2C1c1ccccc1 (centres undefined)
82) CN(C(=O)c1ccc2c(Cl)c3c(nc2c1)CCCC3)C1CCCCC1
83) CSc1sc(C#N)c2c1C(=O)CC(c1ccccc1)C2 (centres undefined)

| compound no. | 81 | 82 | 83 |
| --- | --- | --- | --- |
| BJeLR viability | 1.3 | -3.9 | 0.2 |
| A1 inhib | · | · | 0.6 |
